H5N1 antiviral = antiviral screen in MDCK cells, H5N1 avian flu; cytopathic effect, luminescence, 72 h; active compounds read high; no value below 0 was filed and about half of the inactive calls have no number; reference of the scale not given here; inhibition, % at 50 µM; actives 0.07% (n = 96,000); in the data active means inhibition above about 25%
* hit, by the source's call; i = inactive.

No.	structure	H5N1 antiviral
1	CC1=C(C(=O)OCC(C)C)C(c2cc3c(cc2Br)OCO3)NC(=O)N1C (stereo unspecified)	4.0
2	CCN(CC)CCCNc1oc(-c2cccc(Cl)c2)nc1C#N	i
3	Cc1c(C)n(CC(O)CN2CCOCC2)c2ccccc12 (stereo unspecified)	i
4	O=C(CSc1ccccc1Cl)c1ccco1	i
5	O=C(c1ccco1)N1CCC(n2nnc3ccccc32)CC1	0.5
6	CCOc1ccccc1N(C(=O)CNC(=O)c1ccco1)C(C(=O)NC(C)(C)C)c1ccncc1 (stereo unspecified)	0.5
7	COc1ccc2occ(C(=O)c3cccs3)c2c1	0.5
8	C=CCNC(=O)c1onc(CSc2cccc(OC)c2)c1C(=O)O	0.1
9	CCC(C)NCC(=O)Nc1sc2c(c1C(N)=O)CCC2 (stereo unspecified)	0.7
10	O=C(COC(=O)[C@@H]1CCCN1C(=O)c1cccs1)NCCc1ccccc1	2.5
11	Cc1ccc(NC(=O)c2ccc(CNc3c(N4CCOCC4)c(=O)c3=O)cc2)cc1	1.1
12	Cc1cc(C(C)(C)C)ccc1OCCn1ccnc1	i
13	COc1ccc(NC(=O)CC(=O)Nc2ccc(OC)cc2OC)c(OC)c1	1.2
14	CSCCC(NC(N)=O)C(=O)NCc1ccc(Cl)cc1 (stereo unspecified)	i
15	Cc1cc2cc(C)c3nnc(SCC(=O)NCc4ccc5c(c4)OCO5)n3c2cc1C	1.1

In the list so far, these have four or more nitrogen atoms.
No.	structure	H5N1 antiviral
2	CCN(CC)CCCNc1oc(-c2cccc(Cl)c2)nc1C#N	i
5	O=C(c1ccco1)N1CCC(n2nnc3ccccc32)CC1	0.5
6	CCOc1ccccc1N(C(=O)CNC(=O)c1ccco1)C(C(=O)NC(C)(C)C)c1ccncc1 (stereo unspecified)	0.5
15	Cc1cc2cc(C)c3nnc(SCC(=O)NCc4ccc5c(c4)OCO5)n3c2cc1C	1.1

(next part)
No.	structure	H5N1 antiviral
16	CCn1c(SCC(=O)N2CCCc3ccccc32)nnc1-c1c[nH]c2ccccc12	0.2
17	C=C(Cl)COc1ccc2c(CCCC)cc(=O)oc2c1	i
18	Cc1cc(C)c(C#N)c(SCc2nc3ccccc3[nH]2)n1	0.1
19	CCCOc1cccc(C(=O)NC(=S)Nc2cccc(C(F)(F)F)c2)c1	i
20	CCS(=O)(=O)n1nc(-c2ccc(OC)cc2)nc1SC	i
21	CCOC(=O)C(NC(=O)c1ccccc1OCC)(Nc1ncccn1)C(F)(F)F (stereo unspecified)	i
22	CCOC(=O)Cn1c(-c2nonc2NC(=O)c2ccccc2F)nc2ccccc21	2.0
23	O=C(Cn1c(N2CCN(c3ccccc3)CC2)nc2ccccc21)c1ccccc1	i
24	COc1ccccc1NC(=O)CSc1nnc(CC(=O)Nc2ccccc2)n1C	0.9
25	Cc1cccc2cc3c(NC(=O)CC(C)C)nn(C)c3nc12	0.6
26	O/C(=C\Sc1nnc(Cc2ccccc2)o1)c1ccc(F)cc1	i
27	CCOc1cc(C)c(-c2onc(C(F)(F)F)c2-c2csc(C)n2)c(O)c1	i
28	O=C(C1COc2ccccc2O1)N1CCCC1 (stereo unspecified)	0.5
29	CC(C)NC(=O)C1CCN(C(=O)N(C)C)CC1	i
30	CCOc1c(C#N)c(C#N)c2nc(C)cc(C)n12	1.2
31	CCCc1nc2c(o1)CC(CC(C)SCC)CC2=O (stereo unspecified)	i
32	CCOC(=O)c1nn(-c2ccccc2C)c2nc(-c3ccc(C)cc3)c(C#N)c(=O)n12	2.0
33	CC1(C)Cc2noc(N)c2C(C)(C)N1OC(=O)c1ccco1	i
34	N#Cc1ccccc1NC(=O)CC1CCCCC1	0.1
35	COC(=O)c1ccc(NC(=O)C2CCN(S(C)(=O)=O)CC2)cc1	0.1
36	O=C(Cc1cc(=O)oc2cc(O)ccc12)NCC1CCC(C(=O)O)CC1 (stereo unspecified)	0.1
37	COc1ccccc1CN(Cc1cc2cc(C)ccc2[nH]c1=O)Cc1nnnn1CC1CCCO1 (stereo unspecified)	0.2
38	Cn1cccc1/C=N/n1c(-c2ccc(C(C)(C)C)cc2)n[nH]c1=S	0.5
39	O=C1[C@H]2[C@@H](C(=O)N1c1cc(Cl)cc(Cl)c1)[C@]1(C(=O)Nc3ccccc31)N1CCC[C@@H]21	i
40	O=C(C1CCN(c2nnc(-n3cccc3)s2)CC1)N1CCN(c2cccc(C(F)(F)F)c2)CC1	i
41	N#Cc1c(N2CCOCC2)nc(-c2ccco2)c2c1CCCC2	12.1
42	O=C(CSc1nnc(-c2ccncc2)o1)Nc1ccccc1Cl	0.8
43	Oc1ccccc1-c1cc(-c2ccco2)[nH]n1	i
44	CC(C)c1ccc(NC(=O)C(c2ccccc2)N2CCOCC2)cc1 (stereo unspecified)	0.8
45	O=C(Nc1cccc(Cl)c1)ON=C1c2ccccc2-c2ccccc21	0.6
46	CCOC(=O)N1CCN(S(=O)(=O)N(C)C)CC1	i
47	OC(COCc1ccccc1)CN1CCN(c2ccccc2)CC1 (stereo unspecified)	i
48	CCc1ccc(C(C)NC(=O)c2ccc(F)cc2)cc1 (stereo unspecified)	i
49	Cc1ccc(C2CC(c3cccc(C)c3)n3ncnc3N2)cc1 (stereo unspecified)	1.4
50	CC(Sc1nnc2ccccn12)C(=O)Nc1ccc(Cl)cn1 (stereo unspecified)	2.2
51	CCN1CCN(CC(=O)Nc2ccc3c(c2)OCO3)C(=O)C1=O	0.7
52	CC1CC(C)CN(CCCNC(=O)c2csc3c2CCCC3)C1 (stereo unspecified)	i
53	COc1cccc(OC)c1C(=O)Nc1ccc(NC(=O)c2ccco2)cc1	0.5
54	O=C(Nc1ccc(NC(=O)c2ccc(S(=O)(=O)c3ccccc3)cc2)cc1)c1ccccc1	i
55	CN(O)/C=C1\C(=O)Nc2ccccc21	0.2
56	c1ccc2c(c1)ncc1cccn12	2.1
57	O=C(CNS(=O)(=O)c1ccc(F)cc1)N1CCN(c2ccc(F)cc2)CC1	0.8
58	CCC(c1nnnn1Cc1ccccc1)N1CCN(C(=O)c2ccco2)CC1 (stereo unspecified)	1.7
59	Cc1ccsc1C(=O)N1CC(=O)Nc2ccccc21	i
60	Cc1ccc(Oc2ccccc2)c(NC=O)c1	0.1

Already shown: an excerpt of the list.
No.	structure	H5N1 antiviral
58	CCC(c1nnnn1Cc1ccccc1)N1CCN(C(=O)c2ccco2)CC1 (stereo unspecified)	1.7
59	Cc1ccsc1C(=O)N1CC(=O)Nc2ccccc21	i

Three of the compounds above, with each value named:
4. O=C(CSc1ccccc1Cl)c1ccco1
  H5N1 antiviral: i
5. O=C(c1ccco1)N1CCC(n2nnc3ccccc32)CC1
  H5N1 antiviral: 0.5
6. CCOc1ccccc1N(C(=O)CNC(=O)c1ccco1)C(C(=O)NC(C)(C)C)c1ccncc1 (stereo unspecified)
  H5N1 antiviral: 0.5

(listing goes on)
No.	structure	H5N1 antiviral
61	Cc1ccc2c3c(c(SCC(=O)Nc4nccs4)nc2c1)CCCC3	i
62	CC(=O)Nc1ccc(N(C(=O)c2cnccn2)C(C(=O)NC2CCCCC2)c2ccc(O)cc2)cc1 (stereo unspecified)	i
63	Cc1noc(C)c1S(=O)(=O)Nc1ccc(C(=O)N2CCN(c3cccc(Cl)c3)CC2)cc1	1.3
64	CCOC(=O)c1c(C)[nH]c(C(=O)OCC(=O)NC(C)C)c1C	0.4
65	O=c1cc(CO)occ1OCc1cccc(F)c1	i
66	Cc1ccc(C(=O)C2C(=O)c3ccccc3C2=O)cc1	0.3
67	O=C(Nc1ccccc1)c1cc(-n2cnnc2)ccc1Cl	i
68	CCc1ccc2nc(NC(=O)CCCc3cccs3)sc2c1	0.3
69	CCCOC(=O)CSC1=C(C#N)C(c2ccc3c(c2)OCO3)CC(=O)N1 (stereo unspecified)	i
70	Cc1c(S(=O)(=O)N2CCN(C(c3ccccc3)c3ccccc3)CC2)c(=O)n(C)c(=O)n1C	1.5
71	Cc1ccccc1Nc1nc(N)nc(COC(=O)c2cccn2C)n1	i
72	O=C(NCc1ccco1)C(C(=O)c1ccccc1)n1ccccc1=O (stereo unspecified)	0.3
73	Cc1ccsc1C(=O)OCC(=O)N1CCOCC1	i
74	O=C(Nc1ccc2c(c1)OCCO2)C1CCCN(S(=O)(=O)Cc2ccccc2)C1 (stereo unspecified)	i
75	O=c1oc2cc(Oc3ccc(C(F)(F)F)cc3[N+](=O)[O-])ccc2c2c1CCCC2	i
76	C(=C\c1ccccc1)/C=N/N1CCN(c2ccccn2)CC1	i
77	Cc1ccc(N=C(NOCc2ccc(Cl)cc2Cl)c2nonc2N)c(C)c1	i
78	CCn1c(SCC(=O)Nc2cc(C)on2)nnc1-c1cccnc1	0.4
79	COc1ccc2nc(C)cc(SCC(=O)O)c2c1	0.0
80	COC(=O)Cc1c(C)nc2nc(NCc3ccccc3OC)[nH]n2c1=O	i
81	Cc1cnn(C(=S)NCCc2ccccc2)c1	1.1
82	O=C(CCSc1ccccc1)N1CCN(C(=O)c2ccco2)CC1	i
83	COc1ccc(N2C(=O)CC(N3CCC(O)(c4ccc(Cl)cc4)CC3)C2=O)cc1 (stereo unspecified)	i
84	CCOC(=O)c1[nH]c(C)c(C(=O)OCC(=O)N2c3ccccc3CC2C)c1C (stereo unspecified)	i
85	c1ccc(-c2noc(-c3cccc4ccccc34)n2)cc1	4.0
86	CC(C)(C)c1cnnn1-c1ccc(NC(=O)c2ccc3c(c2)OCO3)cc1	1.1
87	Cc1c(C(=O)O)sc(=S)n1-c1ccccc1	i
88	Cc1cc(OCC(=O)Nc2ccc(F)c(F)c2)nc(C(C)C)n1	i
89	Cc1oc(-c2ccc(Cl)cc2)nc1CS(=O)CC(=O)N1CCC2(CC1)OCCO2 (stereo unspecified)	i
90	COC(=O)CCS(=O)(=O)c1ccc(Cl)cc1	0.3
91	COc1cc(SC)ccc1C(=O)Nc1ccccc1	i
92	Cc1onc(-c2ccccc2)c1C(=O)N1CCN(C)CC1	i
93	COc1ccc(CC/C(=N\O)C2(O)CCCCC2)cc1	i
94	O=C(Cn1[nH]c(=O)c2ccccc2c1=O)OCC(=O)N1CCc2ccccc2C1	0.9
95	COCCNC(=O)c1ccccc1NC(=O)CN(c1ccc2c(c1)OCO2)S(C)(=O)=O	0.9
96	O=C(NCCN1CCOCC1)c1ccccc1-c1ccccc1	i
97	Cc1ccc(CN2C(=O)CCC2C(=O)NCCN2CCOCC2)cc1 (stereo unspecified)	0.1
98	CCc1sc(NS(C)(=O)=O)nc1-c1ccccc1	i
99	COC(=O)c1c[nH]n2c(=O)cc(C)nc12	i
100	COc1cccc(C(=O)NC(=S)Nc2ccc3c4c(cccc24)CC3)c1	i
101	CCOc1ccc2nc(-c3ccccc3)[nH]c2c1	i
102	Cc1cc(NC(=O)c2cnn3c(C(F)F)cc(C4CC4)nc23)no1	0.8
103	CCOc1ccccc1NC(=O)CSCC(=O)Nc1ccccc1	i
104	O=C(Nc1ccccc1)NC1(C(=O)NCc2ccc3c(c2)OCO3)CCCCC1	0.3
105	COc1cc(-c2nnc(-c3ccncc3)o2)ccc1OCc1ccccc1	i
106	Cc1ccc(NC(=O)c2ccc(CSc3nnc(C)s3)cc2)cc1	i
107	Cc1ccc(C(=O)c2ccc([N+](=O)[O-])cc2)c(C)c1	0.1
108	CC(C)CCn1c(SCCc2ccccc2)nc2c1c(=O)[nH]c(=O)n2C	0.8
109	CC1Cc2ccccc2N1C(=O)Cn1c(=O)oc2cc(S(=O)(=O)N3CCCCC3)ccc21 (stereo unspecified)	0.8
110	CCCN1CCC(=NNC(=O)c2ccc(Br)o2)CC1	i
111	CC(CNC(=O)c1cc(Cl)ccc1[N+](=O)[O-])NC(=O)c1cc(Cl)ccc1[N+](=O)[O-] (stereo unspecified)	i
112	CCS(=O)(=O)N1CCC(C(=O)NCCN2CCN(Cc3ccccc3)CC2)CC1	i
113	O=C(O)CSc1sc(=S)sc1SCC(=O)O	i
114	COc1cc(C(=O)Nc2nnc(CC(=O)N3CCOCC3)s2)cc(OC)c1OC	0.4
115	O=C(C1CCC(CNS(=O)(=O)c2cccc3cccnc23)CC1)N1CCc2ccccc21 (stereo unspecified)	0.5
116	CCCS(=O)(=O)N1CCN(C(=O)c2ccc(-c3ccccc3)cc2)CC1	0.3
117	O=S(=O)(NCc1cccs1)c1cccc(S(=O)(=O)N2CCCCC2)c1	7.1
118	CCN1CCN(C(=S)c2ccc(Cl)c(Cl)c2)CC1	0.9
119	COc1cccc(NS(=O)(=O)c2ccc3[nH]cc(C(=O)NCCN4CCOCC4)c(=O)c3c2)c1	i
120	O=C(O)CCc1nc(-c2ccc(Cl)cc2)no1	i

Remaining list, next part.
No.	structure	H5N1 antiviral
121	O=C(c1ccc2c(c1)OCO2)N1CCCC1	0.6
122	O=C1CSC(c2cn(-c3ccccc3)nc2-c2cc3ccccc3oc2=O)N1Cc1ccccc1 (stereo unspecified)	1.9
123	Cc1cccc(-n2nnc(C(=O)N3CCc4ccccc4C3)c2N)c1	i
124	CCCCCCCCOC(=O)CCc1c(C)[nH]c(=S)[nH]c1=O	i
125	CCc1c(C)sc(NC(=O)CC#N)c1C#N	i
126	COc1cccc(C(=O)Nc2ncc3c(n2)CC(C)(C)CC3=O)c1	1.1
127	Cn1cc(C(=O)c2ccc(Cl)cc2Cl)cc1C(=O)N/N=C(\N)COc1ccccc1	0.6
128	CC(C)n1c(SCC(=O)N2CCCC2)nc2c1c(=O)n(C)c(=O)n2C	i
129	Cc1oc(-c2ccc(Cl)cc2)nc1CN1CCC(C(=O)N2CCN(Cc3ccccc3)CC2)CC1	i
130	CCC(=O)N/C(=N\OCc1ccc(F)cc1)c1nonc1NC(=O)CC	i
131	O=S(=O)(c1ccccc1)N1CCN(Cc2ccccc2C(F)(F)F)CC1	0.4
132	CCSc1nc(O)c(C2OC(=O)c3c2ccc(OC)c3OC)c(=O)n1CC (stereo unspecified)	i
133	Cc1cc(C)n(-c2nc3c(c(=O)[nH]c(=O)n3C)n2CC(O)c2ccccc2)n1 (stereo unspecified)	2.4
134	CCCS(=O)(=O)N1CCC(C(=O)N2CCN(C(=O)OCC)CC2)CC1	0.2
135	CCn1c(SCC(=O)NC2CCCCC2)nnc1-c1cccs1	0.9
136	Cc1occc1-c1nnc(SCC(=O)Nc2ccccc2)n1CCc1ccccc1	0.5

Assay outcomes from PubChem.

Only part of the results is shown; count on the stated rates, not on these rows.
